D2 PAM: positive allosteric modulators of human D2 dopamine receptor | 360,000 tested, 0.23% active | potentiation, % (no concentration beside the values) | DiscoveRx D2 beta-arrestin cells, luminescence, 90 min; 100% = 57 uM dopamine signal; active = potentiation of 50% or more; inconclusive = 30% to 50%; inactive = 30% or less;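 note: compound concentration not given in the record; tested on top of an EC20 dose of dopamine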
Target sequence (P14416 whole entry, looked up): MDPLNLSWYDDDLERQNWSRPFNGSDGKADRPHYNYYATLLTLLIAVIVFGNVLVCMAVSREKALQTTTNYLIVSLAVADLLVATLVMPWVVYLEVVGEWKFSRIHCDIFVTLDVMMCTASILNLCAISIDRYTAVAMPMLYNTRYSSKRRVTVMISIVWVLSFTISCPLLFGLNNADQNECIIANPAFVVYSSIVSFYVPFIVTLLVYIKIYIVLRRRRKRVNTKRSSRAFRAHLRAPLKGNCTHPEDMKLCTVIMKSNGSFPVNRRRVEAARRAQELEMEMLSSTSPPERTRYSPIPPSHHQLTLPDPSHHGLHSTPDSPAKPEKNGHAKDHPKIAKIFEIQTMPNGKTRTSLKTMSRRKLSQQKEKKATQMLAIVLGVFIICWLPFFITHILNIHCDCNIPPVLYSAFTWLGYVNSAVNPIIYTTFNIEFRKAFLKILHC
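PathHunter D2 cells, attached overnight at 37 deg C, received compound in DMSO plus dopamine at EC20 (50 nM final) for 90 min at 37 deg C. Beta-arrestin recruitment was read as luminescence after 1 h with detection reagent at ambient temperature.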
Menin MLL FP FL: displaces fluorescein MLL peptide from human menin; Fluorescence polarization, fluorescein-MLL peptide displacement from menin; FP activity change, % at 61.4 µM; 290,000 tested, under 10 active; inconclusive = falling polarisation curve, or a change in total fluorescence; inactive = total fluorescence flat and polarisation flat or rising; no compound was filed as active; the % refers to the polarisation; negative = inhibition;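 note: % of control where 0% means no effect; inhibitors lower the polarisation; unlabelled MLL peptide was the positive control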
TRPV1 PAM: enhances activation of the human vanilloid receptor TRPV1; potentiation, % at 8.33 µM; 320,000 tested, 0.02% active; TRPV1-expressing cells, Fluo-8 calcium influx, capsaicin EC20 potentiation; host cell line not named in the record; control for the full effect not named in the record; Q8NER1; active means potentiation above 80%; inconclusive means 30% to 80%; inactive means below 30%; note: 0% is about no effect
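Fluo-8 calcium influx in TRPV1-expressing cells, kinetic read (ex 480/em 520 nm). Compound added and read 3 min for agonist activity, followed by capsaicin at EC20 final and 2 min further read for enhancement.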
gsp antagonist: antagonizes gsp, the McCune-Albright syndrome mutation. 340,000 tested, 0.4% active. AID 624288. Potency, µM (highest dose often 76.9 µM), for inactives: at the top dose activity change, negative = inhibition, actives largely listed as inhibitors. gsp-mutant cells, cAMP HTRF, 30 min; control for the full effect not named in the record; active = falling curve of any shape with a large fitted effect; inconclusive = falling curve, mostly with a smaller effect; inactive = flat or rising curve; cell line not stated here;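 note: intracellular cAMP measured with PDE inhibitor Ro 20-1724 present during compound exposure; potency is the fitted concentration of half-maximal effect; % is set by controls: 0 for no effect and ±100 for the full control effect; nearly all actives have a fitted effect of over 65% in size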
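Cells in G418 medium, seeded 16-24 h, 37C; buffer exchange to DPBS + 1 mM CaCl2, 0.5 mM MgCl2, 0.05% BSA; cpds in DMSO + […] (300 uM stock), 30 min 37C; HTRF cAMP detection.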
ClpP mod: qHTS Assay for Activators of ClpP. purified B. subtilis ClpP, FRET peptide cleavage, 20 min. Potency, µM (top dose mostly 57.5 µM), for inactives: at the highest dose activity change, negative = active. 340,000 tested, 1.9% active. AID 651965, 2013; active = well fitted falling curve with a large enough effect; inconclusive = small, poorly fitted or top-dose-only effect; inactive = no such curve, though single readings can be large or run the other way; note: potency is the fitted concentration of half-maximal effect; the source files actives as falling curves though it sought activators and does not explain the sign; nearly all actives have a fitted effect of over 65% in size; many hits overshoot -100%
Target sequence (P80244 whole entry, looked up): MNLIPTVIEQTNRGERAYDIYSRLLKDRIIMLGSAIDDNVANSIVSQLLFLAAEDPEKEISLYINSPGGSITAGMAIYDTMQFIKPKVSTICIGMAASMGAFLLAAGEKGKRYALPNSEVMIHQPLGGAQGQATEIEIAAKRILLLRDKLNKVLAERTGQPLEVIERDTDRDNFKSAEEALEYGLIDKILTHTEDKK
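FRET quenching reversal measured ClpP activation: 10 microg/mL B. subtilis ClpP at pH 8 with the FRET-FV decapeptide, read at 430 nm after 320 nm excitation. The 20-min minus 0-min signal was scaled between DMSO/no-enzyme wells and ADEP (5.8 microM final).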
Sfp PPTase inh: Sfp phosphopantetheinyl transferase inhibition | 310,000 tested, 3.5% active | Biochemical Sfp PPTase activity, qHTS | Potency, µM, without a hit: max response, negative = inhibition, actives largely listed as inhibitors | Q9F4F7; active = well fitted inhibition curve with a large enough effect; inconclusive = small, poorly fitted or top-dose-only effect, or another doubt; inactive = no such curve, though single readings can be large or run the other way;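 note: the enzyme is Sfp with the accession as filed and its product quenches rhodamine fluorescence; potency is the fitted concentration of half-maximal effect; 0% = enzyme reaction without inhibitor and -100% = no enzyme wells; top concentration of the series not given in the record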
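Fluorescence-quenching assay with 15 nM Sfp, 5 uM rhodamine-CoA and 12.5 uM BHQ-2-labelled ybbR peptide in pH 7.6 Hepes/MgCl2 buffer. Enzyme was pre-incubated with compound for 15 min at room temperature. Rate was taken from the 30-min fluorescence change (525/598 nm).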
gsp ag: agonists of gsp mutant (McCune-Albright syndrome); 340,000 tested, 0.13% active; AID 624287; gsp mutant cells, cAMP HTRF, 30 min; control for the full effect not named in the record; Potency, µM (series often up to 76.9 µM), for the others: at the top dose activation (cAMP increase), most hits filed as activators; active = well fitted activation curve with a large enough effect; inconclusive = small, poorly fitted or top-dose-only effect, or another doubt; inactive = no such curve, though single readings can be large or run the other way; cell line not stated here;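 note: phosphodiesterase inhibitor Ro 20-1724 added with compounds to block cAMP breakdown; potency is the fitted concentration of half-maximal effect; nearly all actives have a fitted effect of over 60% in size; about a fifth of the inactives were tested at one dose only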
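Cells stably selected in G418 were plated at 2000/well, grown 16-24 hr, then given compounds in DMSO with the PDE inhibitor […] (300 uM solution added) for 30 min at 37C; cAMP was read by HTRF.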
An asterisk follows results filed as active; ? = inconclusive; / = not tested or not shown; [ ] = remark or other dose.

SMILES	D2 PAM	Menin MLL FP FL	TRPV1 PAM	gsp antagonist	ClpP mod	Sfp PPTase inh	gsp ag
COC(=O)CC1=C(C(=O)OC)C(c2cccc(OCC(N)=O)c2)C(C#N)=C(N)O1 (stereo not given)	-2	-24	27	-3%	-5.3%	0%	-2%
O=C(NNC(=O)c1ccccc1O)c1cc2ccccc2o1	12	/	-4	-8%	/	/	7%[15.4 µM]
O=C(CSc1nnc2ccccn12)c1ccc2c(c1)OCCO2	-10	5.1	0	2%	0.7%	9%	-2%
O=C(Oc1ccc(NC(=O)c2cc3c(cc2Br)OCO3)cc1)c1ccccc1	-9	5.6	-3	-3%	3.2%	3%	-5%
CC(C)C(NS(=O)(=O)c1cccc2nsnc12)C(=O)N1CCn2c1nc1ccccc12 (stereo not given)	-2	-6.5	-39	-1%	-9.9%	2%	3%
Cc1ccc(NC(=O)N2CCC(c3nc4c(nnn4Cc4cccc(Cl)c4)c(=O)[nH]3)CC2)cc1	-8	5.0	-15	7%	-0.1%	?	-6%
Cc1ccc(C2=CSC3=NNC4(CCCCC4)NN23)cc1	-11	-1.7	1	1%	-0.1%	-6%	?
Cn1cc(SCC(=O)Nc2nc3ccccc3s2)c2ccccc21	1	-0.8	9	?	2.8%	1%	-21%
NS(=O)(=O)c1ccc(NC(=S)N2CCN(c3ccccc3)CC2)cc1	-1	-0.2	-1	4%	-2.2%	-13%	-6%
O=C(NCc1ccco1)c1cc2sccc2n1Cc1ccc(F)cc1	-12	4.2	-5	?	0.2%	3%	-15%
CC1CCC(=NNC(=O)Cc2ccccc2)CC1 (stereo not given)	9	-1.9	4	0%	-0.7%	11%	-23%
COC(C[C@@H]1O[C@@H]1C(=O)COCc1ccccc1)OC	-16	-2.9	?	2%	-5.2%	10%	/
COc1ccc(NS(=O)(=O)c2cc([N+](=O)[O-])ccc2N/N=C/c2c(C)[nH]c3ccccc23)cc1	5	/	/	14%	-0.1%	/	8%[15.4 µM]
COc1ccc(C(CNC(=O)c2oc3ccc(Br)cc3c2C)N2CCCCC2)cc1 (stereo not given)	-32	-0.9	18	2%	-5.9%	-14%	11%[15.4 µM]
CCCCSc1nc2c([nH]1)c(=S)n(C)c(=O)n2C	-15	/	/	2%	-2.5%	/	18%
Cc1ccn(-c2n[nH]c(C)c2[N+](=O)[O-])n1	4	-0.3	1	-2%	/	4%	12%[15.4 µM]
CCN1C(=O)C(=O)N(CC(=O)N(C)CC(=O)Nc2ccccc2C(F)(F)F)C1=O	0	/	/	9%	0.8%	/	-1%
CCN1C(=O)C(CC(=O)Nc2c(C)cccc2C)Nc2cc(S(=O)(=O)N(C)C)ccc21 (stereo not given)	-4	1.0	9	2%	28µM*	7%	-1%[15.4 µM]
COC(=O)c1cccc(NC(=O)c2ccc(S(=O)(=O)N3CCN(C)CC3)cc2)c1	-16	2.1	/	14%	-1.7%	21%	25%
CCCOc1ccc(-c2c(C(=O)N/N=C(\C)c3ccncc3)nnn2-c2nonc2N)cc1	-9	/	-5	?	-3.6%	16%	26%
CCOC(=O)C1(CCCc2ccccc2)CCN(C(=O)CN2C(=O)CSC2=O)CC1	-4	-0.8	-4	-13%	/	7%	26%
N#Cc1cc(C#N)c(SCC(=O)NCC2CCCO2)nc1N (stereo not given)	-5	4.0	13	0%	/	15%	-18%
COc1cc(/C=C(/C#N)c2nc3ccccc3[nH]2)ccc1OCc1ccc(C(=O)O)o1	-14	?	/	-15%	-2.5%	?	?
O=C(NCc1cn2ccccc2n1)c1ccco1	-11	0.9	27	0%	-29%	-1%	-40%[inhibitor]
COc1ccccc1/C=C/C=N/N1CCN(Cc2ccccc2)CC1	0	4.5	10	8%	-1.2%	-18%	0%[15.4 µM]
(continued)
SMILES	D2 PAM	Menin MLL FP FL	TRPV1 PAM	gsp antagonist	ClpP mod	Sfp PPTase inh	gsp ag
Cn1c(=O)c([N+](=O)[O-])c(NCc2ccccc2Cl)c2ccccc21	-6	1.6	-9	-5%	-3.2%	-20%	-15%[15.4 µM]
COc1ccc(Cn2c(SCc3ccccc3C)nc3cc(OC)c(OC)cc3c2=N)cc1	/	4.3	-16	/	/	1.3µM*	/
O=C(Nc1ccc(S(=O)(=O)C(F)F)cc1)c1cccc(S(=O)(=O)N2CCOCC2)c1	3	-1.2	-9	?	-0.7%	2%	?
Cc1ccc2c(c1)C(=C(C#N)C#N)C(=O)N2CCN1CCOCC1	-2	8.6	-5	-13%	-0.4%	-8%	-74%[inhibitor]
CN1c2ccccc2N(C)C1(C)c1cccc2ccccc12	20	-1.3	4	4%	-15%	?	-9%
Cc1cccc(NC(=S)NNC(=O)c2ccccc2OC(F)F)c1	-40	3.4	2	2%	-11%	-5%	-3%
FC(F)(F)c1cccc(-c2nnc(-c3ccccc3)c(N3CCOCC3)n2)c1	-23	4.2	-9	-20%	1.5%	-7%	?
CN(C)c1ccc(C(=O)Nc2ccc(CN3CCS(=O)(=O)CC3)cc2)cc1	-7	1.6	-11	-2%	-20%	16%	23%
Cc1ccccc1OCCCn1c(CO)nc2ccccc21	-28	3.0	-5	1%	-4.7%	15%	7%[15.4 µM]
C[C@H](CO)N1C[C@H](C)[C@@H](CN(C)CC2CC2)Oc2c(NC(=O)Cc3ccccc3)cccc2C1=O	-1	/	/	-8%	-0.4%	/	/
CCC1CCCCN1S(=O)(=O)c1ccc(S(=O)(=O)N(Cc2ccccn2)CC2CCCO2)cc1 (stereo not given)	-16	8.1	2	-4%	6.2%	-4%	-37%
CC(C)(C(=O)c1ccccc1)/[N+]([O-])=C/c1ccccc1F	-7	/	/	0%	-2.3%	/	1%
Cc1noc(C)c1COC(=O)COc1ccc(C#N)cc1	-3	-5.2	-7	0%	/	22%	21%
Cn1c(SCC(=O)N2CC(=O)Nc3ccccc32)nc2ccccc2c1=O	1	/	6	-8%	3.2%	/	?
COc1ccc(CCNC(=O)c2ccncc2)cc1OC	-5	1.8	-12	8%	1.7%	9%	-40%
O=C(NC(=O)c1cccc(Cl)c1)OC[C@@H]1CCCN2CCCCC12 (stereo not given in full)	-8	5.4	0	10%	-1.4%	9%	?
CCc1nnc(NC(=O)C2COc3ccccc3O2)s1 (stereo not given)	13	1.1	15	3%	-0.8%	0%	-9%
O=C(NNS(=O)(=O)c1ccc(F)cc1)c1ccc2c(c1)OCO2	-6	-3.2	-2	-3%	0.5%	12%	-15%
NC(=O)CC(NC(=O)c1ccccc1)c1ccc(NCCN2CCCCC2)c([N+](=O)[O-])c1 (stereo not given)	-14	-0.2	-4	7%	1.3%	9%	/
O=C(N/N=C/c1ccco1)c1cccc([N+](=O)[O-])c1	-11	0.9	-2	5%	-1.2%	-6%	10%
O=C(NC1CCSC1=O)c1ccc(Oc2cccc(C(F)(F)F)c2)nc1 (stereo not given)	-9	-0.8	-13	1%	1.6%	16%	-23%
O=C(CCN1c2ccccc2Sc2ccccc21)Nc1ccccc1	-9	4.3	-12	-14%	-7.3%	-2%	25%
Cc1nc2cc(F)ccc2n1C1CCN(C(=O)c2ccc(F)cc2F)CC1	1	-5.5	0	-7%	/	11%	19%
CC1CCCCN1S(=O)(=O)c1ccc(C(=O)Nc2sccc2C(N)=O)cc1 (stereo not given)	-2	4.4	17	-21%	1.9%	9%	-10%
CCN1CCN(c2nc3ccccc3nc2C(C#N)C(=O)OCc2ccccc2)CC1 (stereo not given)	-12	?	-12	5%	-2.8%	3%	28%

Single values from above.
Cn1c(=O)c([N+](=O)[O-])c(NCc2ccccc2Cl)c2ccccc21 – Sfp PPTase inh: -20%
NC(=O)CC(NC(=O)c1ccccc1)c1ccc(NCCN2CCCCC2)c([N+](=O)[O-])c1 (stereo not given) – ClpP mod: 1.3%

Next section
SMILES	D2 PAM	Menin MLL FP FL	TRPV1 PAM	gsp antagonist	ClpP mod	Sfp PPTase inh	gsp ag
CC(=O)c1ccc(NC(=O)CSCCO)cc1	7	3.5	-4	6%	0.2%	21%	8%
O=C(CNc1ccc(C(F)(F)F)cc1)Nc1cccc(S(=O)(=O)N2CCCC2)c1	-4	/	-34	-4%	-1.8%	/	21%
CC(C)n1c(SCC(=O)Nc2nc3ccccc3s2)nc2c1c(=O)n(C)c(=O)n2C	10	/	/	-1%	-2.7%	/	11%[15.4 µM]
CCCn1c(NCc2ccc3c(c2)OCO3)nc2ccccc21	-24	1.0	-6	-11%	0.9%	15%	-87%[inhibitor]
Cc1cccc(-c2noc(CCCC(=O)NCC3CCCO3)n2)c1 (stereo not given)	-4	0.4	-3	6%	/	6%	-5%[15.4 µM]
COC(=O)C1CCN(C(=O)c2ccc(NC(C)=O)cc2)CC1	1	-0.5	25	3%	0.2%	16%	-34%[inhibitor]
C=CCSc1nnc(-c2nnc(SCC=C)n2CC)n1CC	-9	-0.3	-7	6%	-0.3%	11%	-7%
CCOC(=O)Cc1csc(NC(=O)/C=C/c2ccc(Br)o2)n1	-17	7.7	-12	-23%	-17%	?	18%
CCOc1cc(C(=O)NCCCNC(=O)c2cc(OCC)c(OCC)c(OCC)c2)cc(OCC)c1OCC	2	/	/	3%	/	/	?
Cc1cc(S(=O)(=O)Nc2cc(C)c(O)c(C)c2)c(C)s1	?	2.8	4	-29%	-2.2%	-12%	9%
CC(=O)NCC1=C(NC(C)=O)C2CC1C(C)(C)C2C (stereo not given)	/	-1.9	?	/	/	4%	/
O=C(Cc1ccccc1)N/N=C/c1cccn1-c1ccc([N+](=O)[O-])cc1	2	7.7	?	?	-1.1%	-16%	-29%
COc1ccc(C2CC(c3cc(OC)ccc3OC)n3nnnc3N2)cc1 (stereo not given)	1	0.3	-2	-6%	-0.9%	9%	-2%
COc1ccc(OC)c(S(=O)(=O)N2CCC(C(=O)NCCC3=CCCCC3)CC2)c1	3	-1.3	6	-23%	-5.3%	3%	-2%
CCOc1ccccc1NC(=O)NCCc1c[nH]c2ccccc12	-1	-2.5	-9	-4%	/	5%	25%
COc1ccc(S(=O)(=O)N(CC(=O)NCC2CCCO2)c2ccc(F)cc2)cc1OC (stereo not given)	-13	1.3	?	5%	-4.9%	25%	0%
CCN(CC(=O)Nc1ccccc1C(F)(F)F)C(=O)CCS(=O)(=O)c1ccc(Cl)cc1	-11	/	-12	12%	1.5%	/	-3%
O=C(Nc1cccc2cccnc12)c1cccc(Cl)c1	-1	-0.7	-1	-12%	-0.3%	-7%	-15%
